# PrP UTR inh – inhibition of PrP 5' UTR reporter expression. actives 0.35% (n = 340,000). AID 488862, 2010. cell-based PrP 5' UTR mRNA reporter, plate reader. inhibition, % (test concentration not listed);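 active = every replicate at 50% or more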;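 also: 0 = median of the neutral control wells; tested in H4 reporter cells; numbers are from one replicate; inactives centre near -14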
# Sa RN4220 lethal – growth inhibition of S. aureus RN4220, primary screen, OD600; actives 0.33% (n = 330,000); 16 h; inhibition, % (concentration not given with the values);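 active = z-score of -3 or lower and OD600 up to 0.18 on both plates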;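 also: plate controls were untreated cells for no effect and reference antibiotic for full effect; stock transfer was 100 nL into about 80 µL; one replicate is shown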
# Bead autofluor – counter-screen for toxin protease inhibitors: compound fluorescence; compound autofluorescence counterscreen, microsphere flow cytometry; active compounds read high; fluorescence intensity (test concentration not listed); actives 3.1% (n = 360,000); AID 624483;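 active = at least 3 SD above the mean of all compounds, about 16000 in these data; inconclusive = too few beads counted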;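 also: 100 nL of 1 mM stock went into each well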
# ugtP null kill – growth inhibition of ugtP-null S. aureus, primary screen, RN4220 ugtP deletion, OD600; 16 h; some inactives read as strong as hits; growth inhibition, % (concentration not given with the values); actives 0.54% (n = 330,000);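 active = z-score under -3 and OD600 up to 0.15 on both plates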;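 also: plate controls were untreated wells for no effect and antibiotic for full effect; wells of about 80 µL received 100 nL stock; the first replicate is given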
# Mtb hypoxia rep – PubChem AID 1159583; M. tuberculosis hypoxia-regulated fluorescent reporter, fluorescence; fluorescence inhibition, % (test concentration not listed); actives 0.1% (n = 300,000);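 active = 35 to 45% if threefold the growth effect, above 45% if 1.5-fold the growth effect; inactive = the rest, general growth blockers included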;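 also: wells of about 50 µL received 100 nL stock; 0% = vehicle wells and 100% = reference inhibitor wells; whole bacteria with a GFP reporter of the hypoxia response; strong numbers were not always called active; many hits fall short of the cut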
# BJeLR viability – MLPCN primary cell-based screen for lethality selective to Ras in HRASV12 cells. BJeLR (HRASV12) viability, CellTiter-Glo ATP luminescence, 48 h; reference of the scale not given here. inhibition, % (no concentration beside the values). actives 0.17% (n = 300,000). AID 1554, 2009;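 active = replicate mean above 50%; inconclusive = above 50% but judged a plate artefact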;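 also: 50 nL library stock added to about 25 µL; numbers are from one replicate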
# Mtb hypoxia rep growth – recorded beside Mtb hypoxia rep, whose call it bears; growth inhibition, %; measured here: M. tuberculosis growth (absorbance);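 0% = vehicle and 100% = reference antibiotic; read after six days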
# An asterisk follows results filed as active; ? = inconclusive; . = no result given; & = joins results of further samples.
SMILES,PrP UTR inh,Sa RN4220 lethal,Bead autofluor,ugtP null kill,Mtb hypoxia rep,Mtb hypoxia rep growth,BJeLR viability
O=C1c2cccc3cccc(c23)N1Cc1ccc(F)cc1,-61,-2.6,2638,3,5,12,-1
COc1ccc(-c2cc(=NCCCCCC(=O)O)c3cc(C)ccc3o2)cc1,-30&-57,0.1&5.4,4260&3308,6&8,14&9,4&0,8
CC(C)CC(=O)Nc1ccc(S(=O)(=O)NCc2ccco2)cc1,-24,2.8,9743,2,19,8,-7
O=C(c1cc2c(=O)n3ccccc3nc2s1)N1CCOCC1,-65,9.3,21556*,8,3,2,15
Cc1ccc(NC(=O)CSc2nc3ccccc3c3nc(CCc4c(C)n[nH]c4C)nn23)cc1F,-4,18,.,4,5,10,-5
COC(=O)c1ccc(C(=O)OC)c(NC(=O)CN2CCN(c3ccc(OC)cc3)CC2)c1,-7,5.4,3155,-1,.,.,11
CCOC(=O)N1CCN(c2cc(=O)n(C)c(=O)n2C)CC1,-121,2.5,5469,6,7,-5,2
O=C(N/N=C/c1ccco1)C(O)C(O)C(=O)N/N=C/c1ccco1 (centres undefined),-15,.,3294,.,.,.,-7
Oc1c(N=Nc2ccccn2)ccc2ccccc12,-32,-3.0,6158,-4,-74,-10,61*
Cc1occc1C(=O)N/N=C/c1ccc(OCc2ccccc2)cc1,-23,.,4552,.,.,.,-2
O=C(Cc1ccccc1)NCCc1cccc(Cl)c1,-24,7.0,10414,0,19,4,-4
Cn1c[n+](C)cc1/C=N/O,-17,.,4574,.,.,.,1
COc1ccc(CCNC(=O)CCCNC(=O)Cn2cnc3sc(C)c(C)c3c2=O)cc1OC,4,6.1,3299,3,15,2,1
COc1ccc(C(=O)COC(=O)c2c(-c3ccccc3)noc2C)c(OC)c1,-10,4.5,6110,1,-5,-6,7
CCS(=O)(=O)N1N=C(c2cccc(NS(C)(=O)=O)c2)CC1c1ccccc1 (centres undefined),-18,15,25649*,-2,6,-2,-10
Cc1ccc(-n2nnc(-c3nccs3)n2)cc1,77*,8.3,3589,-3,4,3,23
COc1ccc(NC(=O)CC2SC(=NCC3CCCO3)NC2=O)cc1 (centres undefined),-15,-0.9,3327,0,5,9,5
CCOc1ccccc1N1CCN(C(=O)CNC(=O)c2ccccc2F)CC1,-18,3.3,3984,5,1,4,-9
Cc1cc(C(=O)COc2ccccc2C(N)=O)c(C)n1C1CC1,-68,1.2,4634,5,14,19,0
O=C(COC(=O)c1ccc(O)cc1O)Nc1ccc2ccccc2c1,-25,-6.0,3976,-17,11,0,.
O=C(Nc1cccc2nsnc12)c1ccc2c(c1)OCO2,-21,27,3156,6,.,.,12
COc1ccc(CCN2C(=O)NC(NC(=O)CCc3ccccc3)(C(F)(F)F)C2=O)cc1OC (centres undefined),-4,2.4,7334,3,-6,6,-7
Cc1cccc(OCC(=O)OCC(=O)N(CC(C)C)c2c(N)n(Cc3ccccc3)c(=O)[nH]c2=O)c1C,-2,-0.1,?,-5,-6,-3,4
Cc1cc(C(=O)Nn2c(-c3ccncc3)nc3ccccc3c2=O)ccc1[N+](=O)[O-],-4,4.7,4765,-5,-13,0,-4
O=C(Nc1cccnc1)c1c(O)c2cccc3c2n(c1=O)CC3,-36,0.5,3373,-2,15,-11,-4
# (further entries)
SMILES,PrP UTR inh,Sa RN4220 lethal,Bead autofluor,ugtP null kill,Mtb hypoxia rep,Mtb hypoxia rep growth,BJeLR viability
O=C(CSc1cccc[n+]1[O-])Nc1c(Br)cc([N+](=O)[O-])cc1Br,-5,1.6,3453,-13,-8,-1,-16
CCN(CC)S(=O)(=O)c1ccc(NC(=O)C2CC(=O)N(c3ccc4c(c3)OCCO4)C2)cc1 (centres undefined),-7,7.1,3484,3,7,8,.
COc1ccc(NC(=O)c2onc(C)c2Cl)cc1,.,2.7,4570,2,5,6,3
CN(C)S(=O)(=O)c1cccc(NC(=O)COC(=O)/C=C/c2ccc3c(c2)OCO3)c1,-48,6.4,3796,2,-12,-4,-4
Cn1c(=O)c2c(SCC(=O)N3CCN(c4ccccc4)CC3)nc(C3CC3)nc2n(C)c1=O,8,17,4969,2,-7,11,-7
CC(C)OCCCNc1ncc2c(n1)CC(c1cccs1)CC2=O (centres undefined),-9,-1.2,2201,-3,-1,13,-1
Cc1c(NC(=O)C2CCCCN2S(=O)(=O)c2ccc(Cl)cc2)c(=O)n(-c2ccccc2)n1C (centres undefined),-7,-0.1,4325,-2,-1,1,-3
Cc1cccc(C(=O)Nc2ccc(C(=O)NN=Cc3ccc(C)o3)cc2)c1,.,0.8,.,-7,13,-2,.
CS(=O)(=O)c1ccc(Cl)c(NC(=O)COC(=O)c2ccc(F)cc2Cl)c1,-24,-1.0,3207,6,5,-2,0
O=C(/C=C/c1ccccc1)NNC1=NS(=O)(=O)c2ccccc21,-38,6.1,4287,4,18,-5,3
CCC(C)(C)NC(=O)C(c1ccc(F)cc1)N(Cc1ccco1)C(=O)CCC(=O)Nc1ccccn1 (centres undefined),-8,-1.0,4372,4,.,.,0
O=C1OCCN1C(=O)[C@H]1[C@H](c2ccc(F)cc2)C(c2cccc(Cl)c2)=NN1c1ccccc1,-15,-11,3727,65,1,-4,.
COc1ccc(C(C(=O)NCC2CCCO2)N(C(=O)Cn2nnc3ccccc32)c2ccccc2C(C)=O)cc1OC (centres undefined),-24,1.5,3554,4,9,2,3
Cc1cccc(C)c1N1C(=O)c2cccc([N+](=O)[O-])c2C1=O,-22,2.1,7196,15,0,8,-15
Cc1nn(CC(=O)NCc2ccc(C(=O)O)cc2)c(C)c1[N+](=O)[O-],-14,2.5,4461,-1,5,-4,3
OC(COC(c1ccc(Cl)cc1)c1ccc(Cl)cc1)CN1CCN(c2ccccn2)CC1 (centres undefined),-6,18,2166,-10,1,6,1
Cc1ccccc1C(=O)NCCc1nnc(SCC(=O)Nc2nc(-c3ccccc3)cs2)n1C,-13,0.8,20936*,-9,9,-1,0
O=C(COC(=O)C1CC(O)CN1S(=O)(=O)c1ccccc1[N+](=O)[O-])c1ccc[nH]1 (centres undefined),.,-0.9,4501,-8,-5,-5,.
Cc1oc(/N=C/c2ccccc2O)c(C#N)c1C,-2,.,10892,.,.,.,0
CCn1c(=O)cc(SCC(=O)N2CCC(C)CC2)c2ccccc21,0,-0.3,15393,-9,-12,6,-1
CCC(C)NC(=O)c1cc(Cl)ccc1OC (centres undefined),-14,0.1,2658,-4,.,.,-1
CCC(C)[C@H]1CNCCN1CC1(c2ccccc2)CC1 (some centres undefined),-3,.,3904,.,.,.,-4
Cc1cccc(NC(=S)N2CCC(O)CC2)c1C,-12,2.0,4395,8,-3,6,3
CCOC(=O)C1=NN(c2ccccc2C)C2=NC(C)=C(C(=O)OC)C(c3cccs3)N12 (centres undefined),-23,1.1,17523*,4,-3,9,4
CCn1c(=O)cc(NC2=NCC(C)CN2c2cccc(Cl)c2)n(C)c1=O (centres undefined),1,6.0,19894*,5,3,3,0
# Next part.
SMILES,PrP UTR inh,Sa RN4220 lethal,Bead autofluor,ugtP null kill,Mtb hypoxia rep,Mtb hypoxia rep growth,BJeLR viability
O=C(Nc1ccccc1C(=O)Nc1ccccc1)c1ccco1,-13,6.1,4304,4,10,13,3
COc1cccc(-c2csc(N3CCN(C(=O)Nc4ccccc4Cl)CC3)n2)c1,-44,33,4673,-13,25,0,2
N#Cc1ccc(OS(=O)(=O)c2ccc(-c3ccon3)s2)cc1,6,4.2,4827,-3,8,13,10
CCOC(=O)c1ccc(-n2c(CN3CCC(C(N)=O)CC3)nc3ccc([N+](=O)[O-])cc3c2=O)cc1,-24,2.5,5637,-5,-6,2,6
CCn1c(COc2ccc(Cl)cc2)nnc1SCc1ccc(C#N)cc1,-24,7.5,2635,-5,.,.,-9
Oc1ccc(Nc2nc(-c3cccs3)cs2)cc1,-71,6.4,2432,-4,-3,-5,1
COc1cccc(CNC(=O)c2ccc(S(=O)(=O)N3CCOCC3)cc2)c1,-27,6.4,.,4,-7,2,.
CCOC(=O)C(C)(C)Sc1nc2c(cnn2-c2ccc(F)cc2)c(=O)[nH]1,-16,8.9,3743,11,12,1,7
COc1cccc(N/C(N)=N/c2nc(C(F)(F)F)cc(C(F)(F)F)n2)c1,-30,3.9,4268,-3,-1,-1,7
CC(=O)c1ccc(S(=O)(=O)N(Cc2cc3cc4c(cc3[nH]c2=O)OCCO4)CC2CCCO2)cc1 (centres undefined),-64,2.5,7189,1,9,1,1
COc1ccc(NC(=O)C(=O)NCC2CCCN2S(=O)(=O)c2cc(C)ccc2C)cc1 (centres undefined),-17,1.5,5769,10,1,1,28
CCC(C)c1ccc(NC(=S)N2CCN(C(=O)C3CCCO3)CC2)cc1 (centres undefined),-27,3.7,6064,2,13,-1,6
CC(C)c1cc(C(=O)Nc2cccc(Cl)c2)no1,-135,2.2,18450*,1,0,9,-1
CC(=O)N1CCOc2ccc(S(=O)(=O)NCCc3ccc(C)cc3)cc21,-2,4.4,5475,6,11,2,5
O=[N+]([O-])c1ccc2nc(C3CCCCC3)[nH]c2c1,-18,2.8,3561,-1,7,16,-4
CCOc1ccccc1NC(=S)N(CCN(C)C)C(C)c1ccncc1 (centres undefined),-7,5.4,4740,8,7,4,1
Cc1ccc2nc(-c3cccc(S(=O)(=O)N(C)C)c3)cn2c1,-30,4.2,?,3,11,12,0
Cc1cc(C(=O)Nc2ccc(C)c(S(=O)(=O)N3CCOCC3)c2)c(C)o1,-7,5.3,3286,11,6,3,19
COc1ccc(NC(=O)c2cccc3c(Br)cccc23)cc1,-16,2.6,3641,2,1,-3,-1
COC(=O)C1=C(C)N(C)C(C)=C(C(=O)OC)C1c1ccncc1,-8,-0.7,3409,14,.,.,0
N/C(CCS(=O)(=O)c1ccc(Cl)cc1)=N\OC(=O)c1ccc(Cl)cc1,-31,5.2,4292,0,1,3,-5
CC1=NN(c2ccccc2)C(=O)C1=C(C)C,-25,5.9,2099,13,7,-7,0
Cc1cc(NN=Cc2ccc(Cl)cc2)nc(NCc2ccccc2)n1,.,57,.,27,-10,-6,.
COc1ccc(-c2n(-c3ccccn3)c3ccccc3[n+]2-c2ccccn2)cc1,-24,3.2,5044,10,2,4,4
CCCCCCCCSc1nnc(/N=C/N(C)C)s1,-13,.,5498,.,.,.,-4

# Among those listed so far, 7 have a nitro group on carbon:
SMILES,PrP UTR inh,Sa RN4220 lethal,Bead autofluor,ugtP null kill,Mtb hypoxia rep,Mtb hypoxia rep growth,BJeLR viability
Cc1cc(C(=O)Nn2c(-c3ccncc3)nc3ccccc3c2=O)ccc1[N+](=O)[O-],-4,4.7,4765,-5,-13,0,-4
O=C(CSc1cccc[n+]1[O-])Nc1c(Br)cc([N+](=O)[O-])cc1Br,-5,1.6,3453,-13,-8,-1,-16
Cc1cccc(C)c1N1C(=O)c2cccc([N+](=O)[O-])c2C1=O,-22,2.1,7196,15,0,8,-15
Cc1nn(CC(=O)NCc2ccc(C(=O)O)cc2)c(C)c1[N+](=O)[O-],-14,2.5,4461,-1,5,-4,3
O=C(COC(=O)C1CC(O)CN1S(=O)(=O)c1ccccc1[N+](=O)[O-])c1ccc[nH]1 (centres undefined),.,-0.9,4501,-8,-5,-5,.
CCOC(=O)c1ccc(-n2c(CN3CCC(C(N)=O)CC3)nc3ccc([N+](=O)[O-])cc3c2=O)cc1,-24,2.5,5637,-5,-6,2,6
O=[N+]([O-])c1ccc2nc(C3CCCCC3)[nH]c2c1,-18,2.8,3561,-1,7,16,-4

# (continued)
SMILES,PrP UTR inh,Sa RN4220 lethal,Bead autofluor,ugtP null kill,Mtb hypoxia rep,Mtb hypoxia rep growth,BJeLR viability
Cc1cc(Br)ccc1N1C(=O)CC(=O)NC1=O,-4,2.6,20409*,2,2,14,-7
O=c1cc(O)nc(SCc2ccccc2Cl)[nH]1,-14,2.2,2356,-4,.,.,7
Cc1cc(NC(=O)Cn2cnc3sccc3c2=O)no1,-19,2.8,2890,1,-4,6,.
CCn1c(SCC(=O)N2CCN(c3cccc(Cl)c3)CC2)nc2ccccc2c1=O,-35,-4.4,8848,-12,3,-1,-3
CSc1c2c(nc3ncnn13)CCC2,-39,5.6,9403,18,17,1,-4
COc1ccc(CN2CCC(n3nccc3NC(=O)C3CCCC3)CC2)cc1,-9,0.5,4343,-5,7,6,-5
CCOC(=O)c1ccc(N2CSC3=C(C#N)C(c4cccs4)CC(=O)N3C2)cc1 (centres undefined),-1,-7.7,5972,-2,8,1,10
Fc1ccccc1N1CCN(Cc2nc(-c3ccccc3)no2)CC1,-16,1.6,10430,9,7,15,1
CCC(=O)c1ccc(OCC(=O)NCc2ccccc2CN2CCCC2)cc1,-12,1.6,5740,8,-2,-3,.

# From PubChem

# The order is random; 4% or so of the library scored in one or more.
